# NS1 inh: influenza NS1 inhibition. Potency, µM (highest dose often 46.1 µM), without a hit: at the highest dose activity, positive = more growth. S. cerevisiae slowed by influenza A NS1, growth recovery by OD600. 270,000 compounds, 0.4% hits. AID 2326; further: actives are rising curves; nearly all actives have a fitted effect of over 50% in size
#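 S. cerevisiae expressing influenza A NS1, grown in glucose, washed, then diluted 1:100 into pH 6.0 -URA galactose medium with 23 nl compound. Growth recovery read as OD600; NS1-free strain serves as control.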
# Marburg entry inh: inhibitors of Marburg virus binding or cell entry; Potency, µM (series often up to 37.8 µM), inactives show top-dose activity change, negative = inhibition, most hits filed as inhibitors; 300,000 compounds, 1.8% hits; Marburg virus pseudotyped entry inhibition, cell reporter; control for the full effect not named in the record; about a third of the inactives were read at about 46 µM; active = well fitted inhibition curve with a large enough effect; inconclusive = small, poorly fitted or top-dose-only effect, or effect the other way; inactive = flat fitted curve, though single readings scatter; tested in HEK293 cells; about a fifth of its hits are not listed in these tables; further: on the % scale 0 is the no-effect control and ±100 the full control effect; luciferase read-out
# RE007 growth inh: less growth of the S. pombe RE007 Vpr strain; S. pombe RE007 Vpr strain, BacTiter-Glo ATP luminescence, 24 h; control for the full effect not named in the record; Potency, µM (titrated, usually from 92.2 µM), without a hit: at the top dose activity change, negative = less growth; 360,000 compounds, 0.21% hits; AID 651644; active = well fitted falling curve with a large enough effect; inconclusive = small, poorly fitted or top-dose-only effect; inactive = no such curve, though single readings can be large or run the other way;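 further: on the % scale 0 is the no-effect control and ±100 the full control effect; nearly all actives have a fitted effect of over 50% in size; the assay follows cell death caused by Vpr and the record does not say whether a fall means rescue or toxicity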
#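 Fission yeast strain RE007, carrying one chromosomally integrated HIV-1 vpr copy, was seeded at OD 0.01 in PMG+AL medium with 23 nL pinned compound. After 24 h at 30 °C and 99% humidity, viability was read by BacTiter-Glo luminescence.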
# Cruzain inh noDet: inhibitors of Trypanosoma cruzi cruzain without detergent; P25779; purified cruzain, Z-FR-AMC fluorescence, no detergent; Potency, µM, for inactives: max response, negative = inhibition, actives largely listed as inhibitors; 200,000 compounds, 2.3% hits; active means well fitted curve in the direction sought with a large enough effect; inconclusive means small, poorly fitted or top-dose-only effect, or another doubt; inactive means no such curve, though single readings can be large; an effect the other way counts as inactive or inconclusive;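 further: plate controls were enzyme without inhibitor for no effect and buffer without enzyme for full effect; nearly all actives have a fitted effect of over 40% in size; top concentration of the series not given in the record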
# Target sequence (P25779 123-467 limits assumed): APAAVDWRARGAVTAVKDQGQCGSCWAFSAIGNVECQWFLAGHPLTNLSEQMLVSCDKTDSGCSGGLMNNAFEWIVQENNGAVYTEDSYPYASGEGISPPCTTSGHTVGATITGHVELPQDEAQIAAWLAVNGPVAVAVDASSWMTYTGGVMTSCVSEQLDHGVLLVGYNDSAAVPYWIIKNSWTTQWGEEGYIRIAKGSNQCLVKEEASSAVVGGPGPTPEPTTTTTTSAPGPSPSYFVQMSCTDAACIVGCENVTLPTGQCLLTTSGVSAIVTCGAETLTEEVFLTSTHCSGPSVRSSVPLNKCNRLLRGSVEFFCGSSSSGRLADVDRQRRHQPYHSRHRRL
#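 Purified cruzain at 1.5 nM, pre-incubated 15 min with compound at room temperature in 100 mM sodium acetate pH 5.5, 5 mM DTT, 0.00005% Triton X-100. Reaction started with 2 uM Z-FR-AMC; AMC fluorescence increase over 60 s gives rate.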
# Cruzain Triton: inhibitors of Trypanosoma cruzi cruzain with detergent; purified cruzain, Z-FR-AMC fluorescence, 0.01% Triton; Potency, µM, without a hit: max response, negative = inhibition, hits mostly inhibitors; 200,000 compounds, 0.43% hits; AID 1478; P25779; active means well fitted curve in the direction sought with a large enough effect; inconclusive means small, poorly fitted or top-dose-only effect, or another doubt; inactive means no such curve, though single readings can be large; an effect the other way counts as inactive or inconclusive;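 further: plate controls were neutral wells for no effect and buffer without enzyme for full effect; nearly all actives have a fitted effect of over 40% in size; top concentration of the series not given in the record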
#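 15 min RT preincubation of 1.5 nM cruzain with compound, then 2 uM Z-FR-AMC added; kinetic AMC fluorescence, 60 s delta. Triton X-100 0.01%, pH 5.5.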
# SARS PLP yeast: blocks SARS-CoV papain-like protease in a yeast assay; S. cerevisiae expressing SARS-CoV PLpro, growth rescue; control for the full effect not named in the record; Potency, µM (top dose mostly 32.9 µM), inactives show at the top dose activity, positive = growth rescue; 330,000 compounds, 0.19% hits; AID 485353; further: 0% is about no effect; nearly all actives have a fitted effect of over 55% in size; growth read by luminescence after 48 h
# Lassa entry inh: Lassa virus entry inhibition | Lassa virus pseudotype entry inhibition, cell reporter; control for the full effect not named in the record | Potency, µM (series often up to 37.9 µM), for the others: at the top dose activity change, negative = inhibition, hits mostly inhibitors | 300,000 compounds, 1.2% hits; active means well fitted inhibition curve with a large enough effect; inconclusive means small, poorly fitted or top-dose-only effect, or effect the other way; inactive means flat fitted curve, though single readings scatter; tested in HEK293 cells; further: on the % scale 0 is the no-effect control and ±100 the full control effect; nearly all actives have a fitted effect of over 50% in size; luciferase read-out
# 2A StopGo: FMDV 2A StopGo reporter, luciferase signal; human cells with a luciferase reporter of 2A StopGo recoding; control for the full effect not named in the record; Potency, µM (doses to about 57.9 µM), for inactives: top-dose signal change, negative = less light; 410,000 compounds, 1.2% hits; active = well fitted falling curve with a large enough effect; inconclusive = small, poorly fitted or top-dose-only effect; inactive = no such curve, though single readings can be large or run the other way; tested in HEK293T cells; further: on the % scale 0 is the no-effect control and ±100 the full control effect; nearly all actives have a fitted effect of over 45% in size; luciferase light after 4 h
# Starred values were filed as active, the others as inactive; ? = inconclusive; . = no result given; [ ] = another dose, or the depositor's remark. Unless noted, the call rests on the fitted dose curve; in most records, active means well fitted rising curve with a large enough effect; inconclusive means small, poorly fitted or top-dose-only effect; inactive means no such curve, though single readings can be large or run the other way. Potency means the concentration at half of the fitted maximal effect. Rows are unselected (roughly 4.7% active in at least one column).
molecule | NS1 inh | Marburg entry inh | RE007 growth inh | Cruzain inh noDet | Cruzain Triton | SARS PLP yeast | Lassa entry inh | 2A StopGo
COc1cc(C2C(=O)c3ccccc3C2=O)ccc1O | -3% | . | -7% | . | . | -2% | . | 26%
Cc1noc(C)c1CCC(=O)NC1CCCN(Cc2ccc(Cl)cc2)C1 (stereo not given) | 8% | ? | 0% | . | . | -5% | 1%[46.1 µM] | -18%
O=c1[nH]c2ccc(S(=O)(=O)N3CCN(C4CCCCC4)CC3)cc2[nH]c1=O | 0% | -7% | 9% | -3% | 2.3% | 0% | 46%[14.3 µM] | 21%
S=C(NCc1ccccc1)NCc1ccc2c(c1)OCO2 | -9% | 17% | 8% | 6% | -3.3% | ? | 10% | 27%
COc1ccc(S(=O)(=O)N(C)c2ccc(C(=O)NCC3CCCO3)cc2)cc1OC (stereo not given) | 11% | ? | 62% | . | . | 1% | -15% | -23%
COc1ccc(C(=O)N/N=C\c2coc3ccccc3c2=O)cc1 | -3% | -3% | -2% | . | . | 0% | . | -9%
Cc1c(N/C=C/C(=O)C(F)(F)F)c(=O)n(-c2ccccc2)n1C | . | 6%[46.1 µM] | -13% | . | . | 1% | -2%[46.1 µM] | -13%
Cc1ccc(-c2nnc(N3CCCCC3)c3ccccc23)cc1S(=O)(=O)N(C)C | -3% | ? | 4% | 2% | 2.5% | -2% | ? | .
O=C(Nc1cccc(-c2cn3cccnc3n2)c1)c1ccc(Br)o1 | -2% | -3% | 11% | ? | -5.7% | -6% | 16% | 34%[activator]
COc1ccc(-n2nnnc2C2CCN(S(=O)(=O)c3ccc(C)cc3)CC2)cc1 | . | ? | . | 0% | 2.7% | . | 5%[46.1 µM] | -26%
O=C(NCc1ccco1)C1c2ccccc2Oc2ccccc21 | 4% | ? | -1% | ? | 1.6% | 2% | 5% | -3%
Fc1ccccc1-c1nc(NCc2ccco2)c2ccccc2n1 | -2% | -25%[46.1 µM] | -3% | . | . | -5% | -20% | -29%
O=C(Nc1ccc(Cl)cc1F)C1CC1c1ccccc1 (stereo not given) | -23% | -8%[46.1 µM] | -11% | . | . | -8% | ? | 14%
CCCn1c(C)cc(C(=O)CSc2nc3ccccc3c(=O)n2Cc2ccco2)c1C | 8.9µM* | ? | 10% | -21% | -4.4% | 13% | ? | 9%
CN(C)c1ccc(/C=N/N=C2/NC(=O)/C(=C/c3ccc([N+](=O)[O-])cc3)S2)cc1 | -14% | ? | -13% | 6.3µM* | -13% | -4% | 2µM* | 8.9µM*
COc1cccc(-c2nn(-c3ccc(C)cc3)cc2C(=O)NCC(c2cccs2)N2CCOCC2)c1 (stereo not given) | . | ? | 0% | . | . | . | ? | -6%
COc1ccc(NC(=O)C2COc3ccccc3C2)cc1Cl (stereo not given) | . | . | . | -7% | -3.8% | . | 4%[46.1 µM] | -3%
COc1ccc(C)cc1NC(=O)CCN1CC(C)OC(C)C1 (stereo not given) | . | 23%[46.1 µM] | 15% | . | . | 1% | 26%[46.1 µM] | -6%
CN1CCN(Cc2cccc(Oc3ccccc3)c2)CC1 | -4% | ? | 0% | 1% | -2.6% | -6% | ? | .
COc1ccc(NC(=O)CCNS(=O)(=O)c2ccc(Cl)c([N+](=O)[O-])c2)cc1S(N)(=O)=O | -4% | 9%[46.1 µM] | 9% | . | . | 0% | ? | 3%

# Quoted from the listing:
# `COc1ccc(-n2nnnc2C2CCN(S(=O)(=O)c3ccc(C)cc3)CC2)cc1` in Lassa entry inh reads 5%[46.1 µM]
# `COc1ccc(C(=O)N/N=C\c2coc3ccccc3c2=O)cc1` in NS1 inh reads -3%
# `Cc1ccc(-c2nnc(N3CCCCC3)c3ccccc23)cc1S(=O)(=O)N(C)C` in NS1 inh reads -3%
# `COc1ccc(NC(=O)C2COc3ccccc3C2)cc1Cl` (stereo not given) in Lassa entry inh reads 4%[46.1 µM]
# `COc1cccc(-c2nn(-c3ccc(C)cc3)cc2C(=O)NCC(c2cccs2)N2CCOCC2)c1` (stereo not given) in 2A StopGo reads -6%
# `S=C(NCc1ccccc1)NCc1ccc2c(c1)OCO2` in RE007 growth inh reads 8%

# Later entries
molecule | NS1 inh | Marburg entry inh | RE007 growth inh | Cruzain inh noDet | Cruzain Triton | SARS PLP yeast | Lassa entry inh | 2A StopGo
CN(Cc1cnccn1)C(=O)C1CCC(=O)N(CCc2ccc(Cl)cc2)C1 (stereo not given) | 1% | 9%[46.1 µM] | 3% | . | . | -3% | -2%[46.1 µM] | -7%
S=C(NCc1ccco1)NCC(c1ccco1)N1CCCCC1 (stereo not given) | . | ? | 4% | . | . | 3% | 8% | 3%
CCS(=O)(=O)c1nc2ccccc2n1CC(=O)N1CCCCC1 | 6% | ? | 7% | 3% | 0.3% | 9% | ? | -18%
O=[N+]([O-])c1ccc2nc(-c3ccccc3)n(OCc3ccc(Cl)cc3)c2c1 | -81% | -12% | 14% | -7% | -2.8% | -2% | 1% | 64%[activator]
COc1ccc(/C=N/Nc2nccnc2Cl)cc1 | -10% | ? | ? | -11% | -1.4% | -10% | 8.2µM* | .
COC(=O)c1c(NC(=S)NNS(=O)(=O)c2ccc(OC)cc2OC)sc2c1CCCCCC2 | -4% | ? | 17% | . | . | -5% | 0% | -19%
Cc1cc(C(=O)NN=C2CCCCCC2)c(C)o1 | -50% | . | -2% | . | . | -1% | . | -1%
O=C(Nc1cccc(Cl)c1)c1ccc(NCCCN2CCOCC2)c([N+](=O)[O-])c1 | 0% | 10µM* | 17% | -8% | -1.7% | 5% | ? | ?
CCOC(=O)C1(CCOc2ccccc2)CCN(C(=O)c2ccc(-n3cccn3)cc2)CC1 | -11% | ? | -4% | . | . | -2% | ? | 22µM*
COc1cc(OC)cc(C(=O)OCCCOC(=O)c2cc(OC)cc(OC)c2)c1 | -7% | -4%[46.1 µM] | -1% | . | . | -5% | 16%[46.1 µM] | -15%
COc1ccc2[nH]cc(C(=O)CN3CCN(C(=O)c4ccco4)CC3)c2c1 | 9% | -22% | 4% | 1% | -3.4% | -1% | -8% | 13%
COc1cc(/C=C/C(=O)OCC(=O)NCCCc2ccccc2)ccc1O | . | 19% | -14% | . | . | -2% | -10% | -15%
O=C(NCCCN1CCOCC1)c1ccc2c(=O)n(Cc3cccc(Br)c3)c(=S)[nH]c2c1 | 13% | ? | 2% | . | . | -2% | 8%[46.1 µM] | -27%
CCOc1ccc(NC(=S)N2CCC(NC(=O)c3ccccc3)CC2)cc1 | 3% | 19%[46.1 µM] | 0% | . | . | 2% | 8% | -26%
Cc1ccc(N2C(=O)/C(=C/c3ccco3)SC2=S)cc1 | 10% | 3% | -11% | -9% | -0.6% | -15% | 9% | 10%
Cc1ccc(NC(=O)c2nnn(Cc3cccc(C(F)(F)F)c3)c2N)c(C)c1 | . | 5%[46.1 µM] | . | ? | -0.2% | . | ? | -8%
CCC(=O)N(Cc1cc(=O)[nH]c2ccccc12)C1CCCCC1 | -8% | -3% | -14% | -15% | 0.7% | -5% | -1% | 0%
CC(Sc1nc(C(F)(F)F)nc2ccccc12)C(=O)NC1CCCC1 (stereo not given) | . | -7%[46.1 µM] | 4% | . | . | -8% | 1% | ?
CCC(C)(C)n1nnnc1C(C(C)C)N(Cc1cccnc1)Cc1ccco1 (stereo not given) | -1% | ? | -17% | . | . | 0% | 16%[46.1 µM] | -24%
COc1ccc2c(c1)CC(C(=O)NCCCN1CCN(c3ccccc3F)CC1)CO2 (stereo not given) | . | . | . | -4% | -1.9% | . | 7%[46.1 µM] | -14%

# Whole records as entered above. Order of screens: NS1 inh | Marburg entry inh | RE007 growth inh | Cruzain inh noDet | Cruzain Triton | SARS PLP yeast | Lassa entry inh | 2A StopGo
# CN(Cc1cnccn1)C(=O)C1CCC(=O)N(CCc2ccc(Cl)cc2)C1 (stereo not given) is entered as 1% | 9%[46.1 µM] | 3% | . | . | -3% | -2%[46.1 µM] | -7%
# COc1ccc(/C=N/Nc2nccnc2Cl)cc1 is entered as -10% | ? | ? | -11% | -1.4% | -10% | 8.2µM* | .

# (cont.)
molecule | NS1 inh | Marburg entry inh | RE007 growth inh | Cruzain inh noDet | Cruzain Triton | SARS PLP yeast | Lassa entry inh | 2A StopGo
COc1ccccc1N(C)S(=O)(=O)c1ccc(C(=O)OCC(=O)NCCC2=CCCCC2)cc1 | ? | ? | 6% | 20% | -2.9% | 0% | -11% | -11%
CCC(=O)NC(=S)Nc1ccc(NC(=O)c2ccco2)c(OC)c1 | 5% | -25% | -2% | -15% | -6.8% | -1% | 13% | 75%[activator]
COc1ccc(-n2cc(CN(C)Cc3n[nH]c(=O)[nH]3)c(-c3cccc(F)c3)n2)cc1 | 0% | -18%[46.1 µM] | 7% | . | . | 0% | ? | 6%
C(=C\c1ccccc1)/CN1CCN(Cc2ccc3c(c2)OCO3)CC1 | 14% | -13% | -8% | . | . | 2% | 3% | -7%
CC(=O)N1CCN(C(=S)NC(=O)c2c(-c3ccccc3Cl)noc2C)CC1 | . | -24%[46.1 µM] | 25% | . | . | 2% | -7% | -10%
O=C(Nc1nnc(S(=O)(=O)N2CCCc3ccccc32)s1)c1cccc(F)c1 | . | . | . | 6% | 0.0% | . | 0%[46.1 µM] | 0%
CCC(C)n1c(SCC(=O)Nc2cc(C(C)(C)C)nn2-c2ccccc2)nc2ccccc2c1=O (stereo not given) | ? | -41% | 4% | 22% | -5.8% | 6% | ? | -29%
CC(=O)NC1(c2ccc(F)cc2)CCN(C(=O)Nc2ccc(F)cc2F)CC1 | 6% | 3% | 17% | 0% | 7.1% | 3% | -8% | -1%
